# Screening data from PubChem.
# GLA inh pH 4.5: alpha-galactosidase A (human) inhibition, pH 4.5 | 230,000 tested, under 10 active | activity change, negative = inhibition, % at 105 µM | AID 1467 | P06280 | purified enzyme, 4-MU-alpha-Gal fluorescence, pH 4.5; inconclusive = small, poorly fitted or top-dose-only inhibition, or a rising curve; inactive = flat fitted curve, though single readings scatter; no compound was filed as active;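 also: 0% = full activity with enzyme and -100% = basal without enzyme; dose as in the result columns while the protocol names 77 µM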
# Rango release inh: inhibitors of RanGTP-induced Rango-importin beta complex dissociation | AID 540253 | Potency, µM (series often up to 46.1 µM), for the others: at the top dose activity change, negative = inhibition | O95149+P62826 | 340,000 compounds, 0.071% hits | Biochemical FRET Rango-importin beta, RanGTP-induced dissociation; active means falling FRET ratio curve, often poorly fitted, with flat reads before Ran was added; inconclusive means other falling curves, or compound fluorescence or quenching; inactive means flat or rising ratio curve;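 also: potency is read from the fitted curve at half-maximal effect; % of control where 0% means no effect; nearly all actives have a fitted effect of over 45% in size; -100% = wells without RanGTP and RCC1; the record marks most hits as doubtful in a second field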
#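 Compounds preincubate 5 min with complex of recombinant Rango and importin beta in PBS with 1 mM DTT. Ran (0.6 uM) loaded with 2 mM GTP plus 0.2 uM RCC1 starts dissociation; FRET is recorded 45 min later.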
# Rango-impB inh: Rango-importin beta binding inhibition | Potency, µM (titrated, usually from 92.2 µM), inactives show at the top dose inhibition of complex formation | Q14974 | Rango CFP/YFP FRET sensor + importin beta, 45 min | 340,000 compounds, 0.031% hits | AID 540263; active = rising FRET ratio curve, often small or poorly fitted; inconclusive = mostly compound fluorescence or quenching in the first reads; inactive = flat curves in all reads;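 also: potency is read from the fitted curve at half-maximal effect; 0% = DMSO wells and 100% = buffer wells lacking importin beta; nearly all actives have a fitted effect of over 15% in size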
# Target sequence (Q14974 whole entry, looked up): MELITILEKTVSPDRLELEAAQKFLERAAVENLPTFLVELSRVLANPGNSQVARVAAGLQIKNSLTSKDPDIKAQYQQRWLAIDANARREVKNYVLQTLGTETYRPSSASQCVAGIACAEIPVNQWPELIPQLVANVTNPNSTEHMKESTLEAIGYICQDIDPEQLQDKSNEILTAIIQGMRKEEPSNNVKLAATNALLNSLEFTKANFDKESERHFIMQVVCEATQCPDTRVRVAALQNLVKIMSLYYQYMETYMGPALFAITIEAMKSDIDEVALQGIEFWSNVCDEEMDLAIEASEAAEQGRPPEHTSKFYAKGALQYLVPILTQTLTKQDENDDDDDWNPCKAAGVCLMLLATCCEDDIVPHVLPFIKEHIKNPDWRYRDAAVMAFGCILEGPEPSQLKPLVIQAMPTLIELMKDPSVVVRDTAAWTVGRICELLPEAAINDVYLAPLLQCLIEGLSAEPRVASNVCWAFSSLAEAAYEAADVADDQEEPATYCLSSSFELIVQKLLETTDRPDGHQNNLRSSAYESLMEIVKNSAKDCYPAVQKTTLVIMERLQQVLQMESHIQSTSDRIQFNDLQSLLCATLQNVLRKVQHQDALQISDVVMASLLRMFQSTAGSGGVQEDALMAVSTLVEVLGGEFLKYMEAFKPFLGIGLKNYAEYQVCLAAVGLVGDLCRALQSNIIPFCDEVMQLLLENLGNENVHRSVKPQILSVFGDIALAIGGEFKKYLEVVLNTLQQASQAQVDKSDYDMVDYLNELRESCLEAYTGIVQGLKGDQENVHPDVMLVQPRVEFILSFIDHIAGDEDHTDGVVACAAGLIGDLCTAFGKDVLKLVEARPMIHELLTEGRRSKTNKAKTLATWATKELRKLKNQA
#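 FRET biosensor Rango (snurportin 1 IBB between N-terminal EYFP and C-terminal Cerulean), 50 nM in PBS/1 mM DTT/0.02% Tween-20/0.1% BSA, preincubated 5 min RT with compound; 0.125 microM importin beta added, 45 min RT, CFP/YFP FRET ratio read.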
# miR-21 FLuc: raises the signal of a miR-21 reporter | HeLa miR-21 FLuc reporter, luciferase, 48 h | Potency, µM (doses to about 38.3 µM), without a hit: top-dose reporter change, positive = more light | 340,000 tested, under 10 active | AID 2288; active = well fitted rising curve with a large enough effect; inconclusive = small, poorly fitted or top-dose-only effect; inactive = no such curve, though single readings can be large or run the other way;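 also: % of control where 0% means no effect; miR-21 action dims this reporter so a rising signal means less miR-21 action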
#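 Compounds were titrated across several concentrations (up to approximately 40 uM) and incubated 48 hours with HeLa miR-21-FLuc reporter cells (miR-21 target sequence downstream of FLuc, endogenous miR-21). Readout was firefly luciferase luminescence after lytic detection reagent.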
# * marks the source's active call; other numbers are inactive results; ? = inconclusive; . = no result given; & = joins results of further samples; [ ] = another dose, or the depositor's remark. This is a subset. The share of hits here may be higher or lower than overall.
# Values in the order: Rango-impB inh, miR-21 FLuc, GLA inh pH 4.5, Rango release inh
CC(Sc1nnc(-c2ccco2)n1N)C(=O)NC1CCCCC1C (stereo not given)
 : -0.6%, ., ., 23%
O=C(NC(Cc1ccccc1)C(=O)N1CCCC(C(F)(F)F)C1)c1ccccc1 (stereo not given)
 : 0.3%, ., ., 8%
Cc1cc(NC(=O)C(C)SCC(=O)N(C)CC(=O)Nc2ccc(F)cc2)no1 (stereo not given)
 : -2.4%, ., ., 17%
CCC1(c2ccccc2)NC(=O)N(CC(=O)Nc2ccc3c(C)cc(=O)oc3c2)C1=O (stereo not given)
 : 0.3%, ., ., -18%
CSc1cccc(NC(=O)c2cc(S(=O)(=O)N3CCCCC3)c[nH]2)c1
 : 0.1%, -1%, ., -6%
O=S(=O)(c1ccc(SCc2cccc(Cl)c2)nc1)N1CCCC1
 : 5.3%, ., ., 20%
COC(=O)C1=C(C)N=C2SC(C#N)=C(N)N2C1c1ccc(OCc2ccccc2)cc1 (stereo not given)
 : ?, 12%, -8, ?
COc1ccc(-c2nn(-c3ccccc3)cc2/C=N/O)cc1
 : 1.6%, -27%, ., 20%
Cc1ccc(N(CC(O)CN2CCCC2)S(=O)(=O)c2ccccc2)cc1 (stereo not given)
 : 4.9%, -9%, 11, ?
COc1ccc(NC(=O)CN(C)C(=O)c2ccccc2CCc2ccccc2)cc1
 : 1.2%, ., ., -7%
COc1ccc(C(=O)NNC2=NCCCCC2)cc1
 : 0.4%, 0%, 4, 0%
COc1cccc(/C=N/NC(=O)c2nc(-c3ccccc3)cc(-c3ccccc3)n2)c1O
 : -0.3%, -5%, 0, -10%
O=C(COC(=O)c1ccc(Br)o1)Nc1ccc(N2CCOCC2)cc1
 : 0.0%, ., ., -12%
Cc1cc(C)cc(N(CCC#N)C(=O)CSC2=Nc3ccccc3C3CC=NN23)c1 (stereo not given)
 : ?, -13%, 2, -18%
O=C(CN1c2ccccc2Sc2ccccc21)N/N=C/c1ccccc1
 : 0.4%, 0%, -2, -3%
CCOc1ccccc1NC(=O)CSc1nnnn1Cc1ccccc1
 : 1.3%, -16%, 5, -12%
COc1c(C)cccc1C(=O)Nc1ccc(N2CCN(S(C)(=O)=O)CC2)cc1
 : ?, -44%, -2, -15%
CCn1c(SCC(=O)Nc2oc(C)c3c(C)n[nH]c(=O)c23)nc2sc(C)c(C)c2c1=O
 : -0.3%, ., ., -16%
COc1cccc(-n2cnnn2)c1
 : 0.4%, -5%, 9, 18%
CC(=O)Nc1cc[n+](C(C)C(=O)c2ccc(Cl)cc2)cc1 (stereo not given)
 : -2.4%, 1%, -7, -1%
COc1ccc(OCC(=O)Nc2cc(C)c(Cl)cc2OC)c([N+](=O)[O-])c1
 : -2.1%, -15%, 4, 1%
CCC(=O)Nc1cc(Cl)ccc1C(=O)O
 : 1.9%, -4%, 5, -3%
O=[N+]([O-])c1ccc(N2CCN(C(=S)Nc3ccc(F)cc3F)CC2)cc1
 : -1.9%, 14%, 0, 3%
COc1ccccc1-n1cnnc1SCC(=O)N1CCOCC1
 : -0.2%, -2%, ., 24%
O=C(CN1C(=O)NC2(CCCCCC2)C1=O)N1CCN(c2ccccc2)CC1
 : 3.6%, ., ., -6%
O=C(NCC(=O)N(Cc1ccco1)C(C(=O)NC1CCCC1)c1ccncc1)c1cccs1 (stereo not given)
 : ?, -9%, 4, -10%
CCCOC(=O)Cc1c(O)c2ccccc2[nH]c1=O
 : 1.0%, -6%, 14, 1%
Cc1ccc(C)c(NC(=O)C2CC(=O)N(C(C)C)C2)c1 (stereo not given)
 : 0.3%, 2%, 3, -5%
COCCNC(=O)C1CC(c2ccc(F)cc2)=NO1 (stereo not given)
 : 0.1%, 0%, 0, -2%
Cc1nc2c(cnn2CCO)c(=O)[nH]1
 : 0.4%, ., ., -6%

# Molecules shown so far containing a nitro group on carbon (2):
# Values in the order: Rango-impB inh, miR-21 FLuc, GLA inh pH 4.5, Rango release inh
COc1ccc(OCC(=O)Nc2cc(C)c(Cl)cc2OC)c([N+](=O)[O-])c1
 : -2.1%, -15%, 4, 1%
O=[N+]([O-])c1ccc(N2CCN(C(=S)Nc3ccc(F)cc3F)CC2)cc1
 : -1.9%, 14%, 0, 3%

# Later entries.
# Values in the order: Rango-impB inh, miR-21 FLuc, GLA inh pH 4.5, Rango release inh
CC(C)Cn1c(/C=C/c2ccccc2)nc2ccccc21
 : 4.5%, -29%, 4, -6%
O=C(Nc1nccs1)c1ccc(-c2cccc([N+](=O)[O-])c2)o1
 : -0.2%, -13%, 2, 4%
Cc1cc(NC(=O)c2cn(C3CCCCC3)c(=O)c3c2c2ccccc2n3C)no1
 : -2.4%, 16%, 2, -9%
CC(C)N(Cc1ccccc1)C(=O)C1CCCN(c2ncnc3c2nc2n3CCCCC2)C1 (stereo not given)
 : 3.7%, 16%, ., -5%
CCOC(=O)c1c(NC(C)=O)sc2c1CCC(C=O)=C2Sc1ccccc1
 : ?, ?, -5, 15µM*
CCOC(=O)CSc1nnc(Cc2cc(=O)[nH]c(=O)[nH]2)n1-c1cccc(OC)c1
 : -2.9%, 2%, 1, 2%
CC(Sc1nc(-c2ccccc2)cc(C(F)(F)F)n1)C(=O)Nc1sc2c(c1C(N)=O)CCC2 (stereo not given)
 : 0.3%, -2%, -9, 2%
COc1ccc(-c2nnn(-c3ccc(Cl)cc3Cl)c2N)cc1
 : -0.7%, -16%, -5, 34%
COc1ccc(C(=O)COC(=O)c2ccccn2)cc1OC
 : -5.6%, ., ., 11%
CC(C)n1cc(/C=N/Nc2ccc(C(=O)O)cc2)c2ccccc21
 : -3.1%, -25%, ., -16%
Cc1ccc(NC(=O)CSc2nnc3ccc(-c4ccncc4)nn23)cc1
 : -0.4%, ., ., -4%
CCC(C)n1cnc2c(c1=O)c1nc3ccccc3nc1n2Cc1ccccc1OC (stereo not given)
 : -3.7%, -7%, -3, 0%
Cc1ccc2c(c1)N(Cc1ccccn1)C(=O)C(C)O2 (stereo not given)
 : -0.2%, 2%, -6, -1%
CSc1nc2ccc(S(=O)(=O)N3CCCC3)cc2s1
 : 5.0%, -10%, 5, 4%
Cc1nc2nc[nH]n2c(=O)c1NS(=O)(=O)c1ccc(C(C)(C)C)cc1
 : 1.9%, 3%, 13[21.1 µM], 12%
COc1ccc(-c2nnc(NC(=O)C3CC3)o2)cc1
 : 0.9%, -26%, 5, ?
Cc1noc(C)c1NC(=O)N(C)C[C@H]1Oc2ccc(NC(=O)Cn3cnnn3)cc2C(=O)N([C@H](C)CO)C[C@@H]1C
 : 3.7%, ., ., 19%
COc1cccc(NC(=O)COC(=O)C2C3CC4OC(=O)C2C4C3)c1 (stereo not given)
 : 0.0%, -1%, ., -10%
Cc1ccc(CN2CCN(C(=O)c3ccco3)CC2)cc1
 : 3.0%, -13%, -8, 5%
COCC(=O)Nc1c(C(=O)Nc2ccc3c(c2)OCO3)oc2ccccc12
 : -3.2%, -29%, ., -11%
O=C(NCCCN1CCCC1=O)c1cccc(C(F)(F)F)c1
 : -3.0%, -3%, -3, 18%
O=C(CCC(=O)NC1CCCCC1)Nc1cccnc1
 : 0.3%, 0%, ., 20%
COc1ccc(S(=O)(=O)N2CCC3(CC2)OCCN3S(=O)(=O)c2cccs2)cc1
 : -2.8%, ., ., 2%
CCc1c(C)nc(SCC(=O)Nc2c(C)n(C)n(-c3ccccc3)c2=O)[nH]c1=O
 : -0.3%, -1%, -12, -6%
COc1ccc(NC(=O)CSc2nc3ccccc3n2-c2ccccc2)c([N+](=O)[O-])c1
 : -0.6%, -4%, -4, 11%
COc1ccc(S(=O)(=O)N2CCCCCC2)cc1NC(=O)CN1C(=O)NC(C)(c2ccccc2)C1=O (stereo not given)
 : -1.7%, ., ., -8%
COc1ccc(NC(C)=[N+](C)CCNS(=O)(=O)c2ccc(Cl)cc2)cc1
 : 0.1%, -1%, ., 19%
COCCCn1c(Cc2csc(Nc3ccccc3)n2)nnc1SCC(N)=O
 : -2.7%, -3%, 2, 1%
Cc1sc(NC(=O)c2ccccc2F)c(CN2CCCCC2C)c1C (stereo not given)
 : -0.6%, -65%, 1, 21%
CSc1cccc(NC(=S)N2CCCN(Cc3ccc(F)cc3)C2)c1
 : -1.2%, -10%, -7, 13%
O=C(NNC(=O)c1ccc2ccccc2n1)c1ccc(O)cc1
 : 4.2%, ., ., -1%
CN(C)C=Nc1ncc2c3ccccc3n(Cc3ccccc3)c2c1C#N
 : 0.1%, 8%, 4, -7%
CCOc1ccc2[nH]c3c(NCCO)ncnc3c2c1
 : -0.8%, -31%, ., -21%
CCOC(=O)CN1CC23C=CC(O2)C(C(=O)NCc2ccc(C)cc2)C3C1=O (stereo not given)
 : -2.3%, -11%, -3, 19%
CCOc1ccc(OCc2cccc(C(=O)Nc3ccc(CN4CCCCC4)cc3)c2)cc1
 : -2.5%, -35%, -3, 9%
N#CC1=C(N)SC(N)=C(C#N)C1CCC1CCCCC1
 : ., 18%, 0, .
CC(Sc1nc2c(c(=O)n(C)c(=O)n2C)n1Cc1cc2c(cc1Cl)OCO2)C(=O)O (stereo not given)
 : 0.9%, 1%, 9, 4%
C=C1CCN([C@@H](CC(C)C)C(=O)NCc2ccc(Cl)cc2)S(=O)(=O)c2ccccc21
 : 1.6%, ., ., 2%
O=C(NCCN1CCN(C(=O)c2ccc(Br)cc2)CC1)c1ccc(Br)cc1
 : -2.9%, 8%, ., 0%
O=C(COC(=O)Cc1ccc(Br)cc1)NC1CCCC1
 : -1.9%, ., ., -6%
Cc1ccc(NC(=O)c2cccc(S(=O)(=O)N3CCCc4ccccc43)c2)nc1
 : 0.2%, ., ., 5%
O=C(N/N=C/c1cccc(OC2CSC2)c1)c1ccccc1O
 : 0.5%, -12%, -10, 5%
CCOCc1c(C(=O)Nc2ccc3nc(N4CCOCC4)sc3c2)oc2ccccc12
 : 3.1%, ., ., -8%
Cc1ccc(CNC(=O)c2cccc(-n3cnnn3)c2)cc1
 : -1.6%, 0%, 0, 13%
CCn1nc(C)c(C2C(C#N)=C(N)Oc3n[nH]c(C)c32)c1C (stereo not given)
 : 0.7%, 0%, 2, 2%
CCCNS(=O)(=O)c1cc2c(cc1Br)CCN2C(=O)CC
 : -1.4%, ., ., 0%
O=C(CSc1ncnc2c1nnn2Cc1ccccc1F)NCC1CCCO1 (stereo not given)
 : 2.2%, 7%, ., 0%
Cc1cccc(N(C)S(=O)(=O)c2ccc3c(c2)NC(=O)CC(=O)N3)c1
 : 2.5%, 6%&5%, -2[21.1 µM], 14%
O=C(Cc1ccccc1)NNC(=O)C1CCN(c2ncccn2)CC1
 : 2.8%, 0%, -4, -11%
CN(C)c1ccc(NC(=O)CSc2nnc(-c3cccs3)n2Cc2ccco2)cc1
 : 4.1%, 2%, -4, 0%
CC1(C)Cc2c(sc3nc(-c4cccs4)n(N)c(=O)c23)CO1
 : 0.0%, 15%, 6, -11%
Cn1c2ccccc2c(=O)n2c(=O)c3ccccc3cc12
 : ., -23%, -4, .
O=C(/C=C/c1ccco1)NC(=S)Nc1ccc(C(=O)O)cc1
 : -2.6%, -18%, ., 4%
COc1ccc(Br)cc1/C=C/C(=O)NCC(=O)O
 : -0.7%, 0%, -17[21.1 µM], 19%
CCOC(=O)c1c(NC(=S)Nc2ccc(C)cc2)sc2c1CCC2
 : -0.8%, -1%, 1, 8%
Cc1c(C(=O)Nc2ccccc2)sc2ncn(CC(=O)N3CCCCC3)c(=O)c12
 : -2.0%, -1%, ., 3%
COc1ccc(Nc2c3ccccc3nc3ccccc23)cc1
 : ?, 1%, ., -16%
CCCN1C(=O)c2cc(C(=O)NC3CCCCCC3)ccc2C1O (stereo not given)
 : ?, -38%, -4, 6%
CC(C)=CCN1CCNC(=O)C1CC(=O)NCc1nc(C)c(C)s1 (stereo not given)
 : -0.5%, 2%, -2, -9%
Cc1nc2c(-c3ccc(F)cc3)c(C)nn2c(C)c1CCC(=O)NC(C)CCc1ccco1 (stereo not given)
 : ?, -4%, -7, 13%
O=C(/C=C/c1ccc(Cl)cc1)N(c1ccccn1)C1CCCCC1
 : 0.0%, -6%, -8, 1%
COc1cccc(NC(=O)CN(C)C(=O)CSc2ccc3c(c2)OCCO3)c1
 : 1.2%, ., ., -6%
C/C(=N\N1CCN(c2ccccc2)CC1)c1ccncc1
 : 7.7%, -34%, 4, -8%
